Screening data (PubChem)
D2 PAM: Beta-Arrestin HTS for Positive Allosteric Modulators of the Human D2 Dopamine Receptor: Potentiators; DiscoveRx D2 beta-arrestin cells, luminescence, 90 min; 100% = 57 uM dopamine signal; potentiation, % (test concentration not listed); hit rate 0.23% among 360,000; AID 624464, 2012; active = potentiation of 50% or more; inconclusive = 30% to 50%; inactive = 30% or less;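 note: compound concentration not given in the record; tested on top of an EC20 dose of dopamine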
Target sequence (P14416 whole entry, looked up): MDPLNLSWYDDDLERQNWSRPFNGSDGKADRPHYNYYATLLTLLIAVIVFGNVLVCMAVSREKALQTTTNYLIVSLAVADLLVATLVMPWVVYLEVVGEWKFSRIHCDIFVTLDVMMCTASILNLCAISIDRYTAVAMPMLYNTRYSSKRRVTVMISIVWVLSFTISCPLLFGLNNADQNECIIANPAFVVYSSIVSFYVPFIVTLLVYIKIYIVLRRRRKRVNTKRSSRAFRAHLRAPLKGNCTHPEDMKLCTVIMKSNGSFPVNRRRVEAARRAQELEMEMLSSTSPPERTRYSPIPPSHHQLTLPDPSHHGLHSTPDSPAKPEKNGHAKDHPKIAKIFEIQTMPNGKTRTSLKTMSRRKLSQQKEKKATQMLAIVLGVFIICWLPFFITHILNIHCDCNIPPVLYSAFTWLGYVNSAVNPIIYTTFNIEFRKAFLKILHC
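PathHunter D2 cells, attached overnight at 37 deg C, received compound in DMSO plus dopamine at EC20 (50 nM final) for 90 min at 37 deg C. Beta-arrestin recruitment was read as luminescence after 1 h with detection reagent at ambient temperature.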
gsp antag: qHTS for Antagonists of gsp, the Etiologic Mutation Responsible for Fibrous Dysplasia/McCune-Albright Syndrome: qHTS; gsp-mutant cells, cAMP HTRF, 30 min; control for the full effect not named in the record; Potency, µM (doses to about 76.9 µM), for the others: top-dose activity change, negative = inhibition, actives largely listed as inhibitors; hit rate 0.4% among 340,000; active = falling curve of any shape with a large fitted effect; inconclusive = falling curve, mostly with a smaller effect; inactive = flat or rising curve; cell line not stated here;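 note: intracellular cAMP measured with PDE inhibitor Ro 20-1724 present during compound exposure; potency is the fitted concentration of half-maximal effect; % is set by controls: 0 for no effect and ±100 for the full control effect; nearly all actives have a fitted effect of over 65% in size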
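Cells in G418 medium, seeded 16-24 h, 37C; buffer exchange to DPBS + 1 mM CaCl2, 0.5 mM MgCl2, 0.05% BSA; cpds in DMSO + […] (300 uM stock), 30 min 37C; HTRF cAMP detection.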
TRPV1 potentiator: HTS Assay for Compounds that Act as Potentiators of the Vanilloid Receptor 1. Transient receptor potential cation channel subfamily V member 1 (Homo sapiens), Q8NER1. TRPV1-expressing cells, Fluo-8 calcium influx, capsaicin EC20 potentiation; host cell line not named in the record; control for the full effect not named in the record. potentiation, % at 8.33 µM. hit rate 0.02% among 320,000; active means potentiation above 80%; inconclusive means 30% to 80%; inactive means below 30%; note: 0% is about no effect
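Fluo-8 calcium influx in TRPV1-expressing cells, kinetic read (ex 480/em 520 nm). Compound added and read 3 min for agonist activity, followed by capsaicin at EC20 final and 2 min further read for enhancement.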
Sfp inh: qHTS Assay for Inhibitors of Bacillus subtilis Sfp phosphopantetheinyl transferase (PPTase). 4'-phosphopantetheinyl transferase ffp (Bacillus subtilis), Q9F4F7. Biochemical Sfp PPTase activity, qHTS. Potency, µM, inactives show max response, negative = inhibition, hits mostly inhibitors. hit rate 3.5% among 310,000. AID 1490, 2009; active = well fitted inhibition curve with a large enough effect; inconclusive = small, poorly fitted or top-dose-only effect, or another doubt; inactive = no such curve, though single readings can be large or run the other way;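 note: the enzyme is Sfp with the accession as filed and its product quenches rhodamine fluorescence; potency is the fitted concentration of half-maximal effect; 0% = enzyme reaction without inhibitor and -100% = no enzyme wells; top concentration of the series not given in the record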
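Compounds were incubated with enzyme (final 15 nM) for 15 min at room temperature before substrate addition started the reaction. Fluorescence at 525 nm excitation, 598 nm emission was recorded immediately and after 30 minutes.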
gsp ag: qHTS for Agonist of gsp, the Etiologic Mutation Responsible for Fibrous Dysplasia/McCune-Albright Syndrome: qHTS | Potency, µM (doses to about 76.9 µM), without a hit: at the highest dose activation (cAMP increase), actives largely listed as activators | hit rate 0.13% among 340,000 | gsp mutant cells, cAMP HTRF, 30 min; control for the full effect not named in the record; active = well fitted activation curve with a large enough effect; inconclusive = small, poorly fitted or top-dose-only effect, or another doubt; inactive = no such curve, though single readings can be large or run the other way; cell line not stated here;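 note: phosphodiesterase inhibitor Ro 20-1724 added with compounds to block cAMP breakdown; potency is the fitted concentration of half-maximal effect; nearly all actives have a fitted effect of over 60% in size; about a fifth of the inactives were tested at one dose only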
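Cells in DMEM/10% FBS with G418 were pretreated with compounds in DMSO plus […] (300 uM stock) for 30 min at 37C. cAMP was measured by HTRF (cAMP-d2 plus anti-cAMP antibody-K) after 30 min at room temperature.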
Menin MLL FP FL: qHTS Assay for Inhibitors Targeting the Menin-MLL Interaction in MLL Related Leukemias: Competition With Fluorescein Labeled MLL-derived Peptide; Fluorescence polarization, fluorescein-MLL peptide displacement from menin; FP activity change, % at 61.4 µM; 290,000 tested, under 10 active; AID 1766, 2009; inconclusive = falling polarisation curve, or a change in total fluorescence; inactive = total fluorescence flat and polarisation flat or rising; no compound was filed as active; the % refers to the polarisation; negative = inhibition;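 note: % of control where 0% means no effect; inhibitors lower the polarisation; unlabelled MLL peptide was the positive control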
ClpP mod: qHTS Assay for Activators of ClpP | purified B. subtilis ClpP, FRET peptide cleavage, 20 min | hit rate 1.9% among 340,000 | Potency, µM (highest dose often 57.5 µM), for inactives: at the top dose activity change, negative = active; active = well fitted falling curve with a large enough effect; inconclusive = small, poorly fitted or top-dose-only effect; inactive = no such curve, though single readings can be large or run the other way; note: potency is the fitted concentration of half-maximal effect; the source files actives as falling curves though it sought activators and does not explain the sign; nearly all actives have a fitted effect of over 65% in size; many hits overshoot -100%
Target sequence (P80244 whole entry, looked up): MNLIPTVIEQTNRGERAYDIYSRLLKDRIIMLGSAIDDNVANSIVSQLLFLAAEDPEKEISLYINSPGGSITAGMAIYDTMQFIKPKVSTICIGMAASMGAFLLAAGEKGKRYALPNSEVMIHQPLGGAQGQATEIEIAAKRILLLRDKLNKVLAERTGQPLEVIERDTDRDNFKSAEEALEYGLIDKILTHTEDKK
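ClpP 10 microg/mL final, pH 8 Tris/KCl buffer with BSA, glycerol, Tween-20; compound pinned in; FRET-FV substrate; RT 20 min; Ex320/Em430; ΔFRET vs ADEP 5.8 microM, DMSO, no enzyme.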
Starred values were filed as active, the others as inactive; u = inconclusive; x = no result given; & = joins results of further samples; [ ] = dose if it differs, or a comment.

SMILES	D2 PAM	gsp antag	TRPV1 potentiator	Sfp inh	gsp ag	Menin MLL FP FL	ClpP mod
CC(C)(C)NC(=O)Cn1c(=O)c(=O)n(Cc2ccccc2)c2ccc(Cl)cc21	-5	11%	29	18%	-33%[inhibitor]	-0.8	-10%
Cc1cc(NC(=O)Cn2cc(C(F)(F)F)cc(Cl)c2=O)no1	2	-3%	20	21%	4%	1.0	-2.6%
CN(C)CCOC(=O)NC12CC3CC(CC(C3)C1)C2	-16	6%	x	-4%	31%[15.4 µM]	4.2	x
CC1CN(C(=O)CCC(=O)NCc2ccccc2)c2cc(Cl)ccc2O1 (stereo unspecified)	-12	-8%	-22	8%	-18%	-7.4	-0.5%&-0.2%
COc1ccc(OC)c(C2=Nn3c(nnc3-c3cc(C)[nH]n3)SC2)c1	-2	14%	14	-8%	-24%	3.0	x
O=C(COc1ccc(S(=O)(=O)N2CCCCC2)cc1)NCc1ccccn1	-3	3%	-11	-4%	-13%[15.4 µM]	-1.9	x
CC1(c2ccc(Cl)cc2)NC(=O)N(CC(=O)Nc2ccc3c(c2)OCO3)C1=O (stereo unspecified)	-12	x	x	x	-82%[inhibitor]	x	2.1%
COC(=O)C1=CN(C)C=C(C(=O)OC)C1c1ccccc1Cl	-9	-6%	u	4%	15%	0.8	78%
Cc1ccc(C(=O)NNC(=O)CCn2nnc3ccccc32)cc1	13	1%	12	14%	-3%	-7.9	x
Cc1ccc(C)c(C(=O)CN2C(=O)NC3(CCC(C)CC3)C2=O)c1 (stereo unspecified)	-9	18%	6	11%	-10%[15.4 µM]	2.8	1.1%
COC(=O)c1ccc(OC(=O)c2ccc(OCc3c(C)noc3C)c(OC)c2)cc1	x	x	1	4%	x	-0.9	x
CCN(CC)CCCNC(=S)N1CCN(c2nc(-c3ccccc3)cs2)CC1	-14	14%	9	2%	6%	-3.2	x
C[C@@H]1CN([C@H](C)CO)C(=O)c2cc(-c3ccc(C#N)cc3)cnc2O[C@H]1CN(C)C(=O)c1ccccc1	2	x	x	x	-37%[inhibitor]	x	-10%
CC1(C)CC(=O)C(C=Nc2cccnc2/N=C/C2=C(O)CC(C)(C)CC2=O)=C(O)C1	-29	-5%	0	20%	-52%[inhibitor]	-11	x
Cc1ccc(S(=O)(=O)N(C)c2ccc(OCC(=O)OCC(=O)N(CC#N)c3ccccc3)cc2)cc1	22	7%	11	x	-19%	x	-0.9%
CC(=O)N1CCN(c2cccc(C)c2C)CC1	0	13%	-31	5%	-3%	2.0	-1.7%
COc1ccc(NC(=O)Nc2cccc3c2O[C@H](CN(C)C(=O)Nc2c(C)noc2C)[C@@H](C)CN([C@H](C)CO)C3=O)cc1	-9	5%	x	x	13%	x	-0.3%
O=C(NCC1CCCO1)c1cccc(NS(=O)(=O)c2ccc(Br)cc2)c1 (stereo unspecified)	-4	-10%	0	x	-2%[15.4 µM]	x	-1.9%
CCC(Oc1ccccc1)C(=O)Nc1nc2c(s1)C(=O)CC(C)(C)C2 (stereo unspecified)	6	-19%	3	9%	32%	1.2	u
Oc1ccc(-c2cccc(-c3ccc(O)cc3)c2)cc1	-1	-10%	0	18%	-21%	0.1	0.7%
Clc1cccc(-c2csc(Nc3cccnc3)n2)c1	-14	-15%	2	56µM*	6%[15.4 µM]	2.5	2.7%
CC(=O)c1ccc(NC(=O)c2ccc(NC(=O)c3ccco3)cc2)cc1	-8	7%	10	4%	u	x	-2.9%
CC(=O)c1cccc(NC(=O)Nc2cccs2)c1	0	1%	1	u	-26%	10	-4.2%
CSc1cc(-c2ccccc2)n(Cc2ccccc2Cl)c(=O)c1C#N	-3	1%[15.4 µM]	1	2%	23%	1.2	-23%
COC(CN(C)C(=O)c1ccc(CS(=O)(=O)c2ccccc2C)o1)OC	-6	13%	-13	6%	-1%	3.6	1.3%
CN1CCN(S(=O)(=O)c2ccc(NC(=O)COc3ccccc3Cl)cc2)CC1	2	3%	16	12%	-6%	-5.1	x
COc1ccc(Cl)cc1NC(=S)Nc1ccccc1C	-11	11%	-10	-8%	-5%[15.4 µM]	-3.1	x
CCOc1ccc(N(CC(=O)NCc2ccccc2Cl)S(=O)(=O)c2c(C)[nH]c(=O)[nH]c2=O)cc1	6	-7%	18	10%	-4%	x	-1.3%&-3.8%
COc1ccc(-c2nc(-c3ccc(O)cc3O)cs2)cc1OC	20	-2%	1	-1%	9%[15.4 µM]	-1.6	x
CCOC(=O)c1c(C)noc1-c1ccc(Br)o1	-1	-1%	0	10%	-8%[15.4 µM]	-0.2	x
COc1ccc(OC(C)C(=O)N2CCc3ccccc3C2)cc1 (stereo unspecified)	-4	10%	-3	14%	19%	2.7	-2.6%
COc1ccccc1N1CCN(/N=C/c2ccc(OC)c(OC)c2OC)CC1	1	-10%	-10	9%	-47%[inhibitor]	0.8	x
Cc1cc(Br)cc(Cl)c1OCC(=O)NC(=O)NCc1ccccc1	-1	17%	-3	13%	7%	2.5	1.7%
Cn1nccc1C(=O)Nc1sc2c(c1C(N)=O)CCCC2	-4	-1%	-4	-11%	5%[15.4 µM]	-0.6	x
COc1cccc(CCNC(=O)C2CCC(=O)N(C3CC3)C2)c1OC (stereo unspecified)	-4	-12%	2	14%	26%	-0.1	-0.7%
COc1ccc(N=C2SCC(=O)N2CCc2ccc(OC)c(OC)c2)cc1	-3	-12%	-12	11%	-9%	4.3	0.0%
CCCCS(=O)(=O)N1CCCC(C(=O)N2CCOCC2)C1 (stereo unspecified)	10	4%	-17	31%[activator]	-15%	1.8	1.9%
CC(C)Nc1nc(NC(C)C)nc(NS(=O)(=O)c2ccc(N)cc2)n1	-12	2%	-8	7%	14%	3.8	-4.1%
COc1ccc(C(=O)NC(C)c2nnc(SCC(=O)NC3CCCC3)n2C)cc1 (stereo unspecified)	1	10%	0	20%	u	0.3	x
CCN(CC(=O)NCc1cccs1)c1ccc(S(=O)(=O)N2CCN(C)CC2)cn1	-12	7%	u	-1%	24%	-1.6	-9.2%
O=C(C1CCCO1)N1CCN(C(=S)Nc2ccccc2F)CC1 (stereo unspecified)	-18	11%	2	18%	-49%[inhibitor]	-0.1	-13%
COc1c(OC2OC(C(=O)O)C(O)C(O)C2O)cc(O)c2c(=O)cc(-c3ccccc3)oc12 (stereo unspecified)	-18	9%	1	40µM*	x	0.4	-2.5%
NS(=O)(=O)c1ccc(CCNC(=O)c2cc(=O)[nH]c3ccccc23)cc1	-4	7%	u	11%	-24%	-1.2	x
COc1ccc(-c2noc(CCC(=O)N3CCN(c4ccc(Br)cc4)CC3)n2)cc1	-6	-2%	x	x	x	x	0.0%
CCCN(C(=O)COc1ccc(Cl)cc1Cl)c1c(N)n(Cc2ccccc2)c(=O)[nH]c1=O	1	1%	-3	-2%	-44%[inhibitor]	5.5	-0.9%
Cc1oc(-c2ccccc2F)nc1CS(=O)CC(=O)NCc1cccs1 (stereo unspecified)	-6	3%	11	-3%	17%	-0.9	-6.0%
NC(=O)CS(=O)(=O)c1nc2ccccc2n1Cc1ccccn1	-9	17%	-4	15%	-7%[15.4 µM]	-1.6	x
CCOC(=O)Nc1ccc2c(COC(=O)CNS(=O)(=O)c3cccc(Br)c3)cc(=O)oc2c1	-18	-5%	7	0%	-30%[inhibitor]	2.3	u
CN(C)c1ccnc(SCc2ccccc2Cl)c1C#N	-6	-4%	-2	7%	12%	-1.5	-5.8%
O=C(O)c1ccccc1N/C=C\[N+](=O)[O-]	3	2%	-3	56µM*	-23%	u	x
O=C(NC(=S)NCc1ccc2c(c1)OCO2)c1ccccc1	-1	-8%	-1	-6%	22%[15.4 µM]	-0.4	-1.7%
O=C1CC(c2ccccc2)CC(O)=C1C=NCc1ccccc1Cl (stereo unspecified)	-9	33%[activator]	-20	5%	-52%[inhibitor]	4.3	0.9%
Cc1cc(Cl)ccc1NNC(=O)c1cccs1	18	-6%	x	-14%	5%[15.4 µM]	u	-0.3%
Cc1nc2ccc3nc(NC(=O)c4ccc5c(c4)OCCO5)sc3c2s1	-5	19%	17	-1%	-11%	3.3	-9.6%
CC1CCCCC1NC(=O)/C(C#N)=C/c1ccc2c(c1)OCCO2 (stereo unspecified)	-1	0%	5	0%	-4%	0.5	-2.8%
CC(C)Oc1ccc(N2CC(C(=O)Nc3ccccc3C(=O)NC3CC3)CC2=O)cc1 (stereo unspecified)	-4	-5%	4	x	18%[15.4 µM]	x	x
[O-]/C(=C(\C(=S)Nc1cccc2ccccc12)[n+]1ccccc1)c1ccc(Cl)s1	-3	-11%	10	-28%	-4%	9.8	-29%
O=C(COc1ccccc1C(=O)NCc1ccncc1)Nc1ccc(Br)cc1	-12	-31%	13	6%	19%[15.4 µM]	-5.4	-2.7%
CCOC(=O)C1(CCCc2ccccc2)CCN(C(=O)CCOC)CC1	-3	3%	-11	-3%	4%[15.4 µM]	-1.0	x
Cc1cccc(SCC(=O)Nc2ccc3c(c2)OCCO3)c1	8	-6%	-9	6%	0%	-2.2	2.0%
NC(=O)CC(NC(=O)Cc1cccc2ccccc12)c1ccc(N2CCC(N3CCCC3)CC2)c([N+](=O)[O-])c1 (stereo unspecified)	-16	3%	-10	-2%	6%	-1.6	-4.9%
Cc1ccc(Cn2c(N3CCCCCC3)nc3c2c(=O)[nH]c(=O)n3C)cc1	-12	3%	-10	-12%	5%	6.9	-1.1%
